# Mtb growth = M. tuberculosis H37Rv growth inhibitors, H37Rv strain (AID 1626); M. tuberculosis H37Rv growth inhibition; higher % means a stronger effect; inhibition, % at 10 µM, or IC50 in µM where a hit was titrated; 220,000 compounds, 0.95% hits;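 active = confirmed in a dose series; inconclusive = inhibition above 80% but not taken into the dose series; inactive = below 80% or under 30% at every dose of the series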;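 also: bacteria incubated seven days before Alamar blue readout; 0% = bacteria only wells and 100% = bacteria with antibiotic wells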
# Arbovirus anti = blocks arbovirus infection; arbovirus infection cell-based antiviral screen; inhibition, % at 10 µM; 200,000 compounds, 0.37% hits; AID 1251;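 active = inhibition from about 30%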;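 also: bluetongue infection of BSR cells; cell survival read as ATP light after 72 h; 0% = infected wells without compound and 100% = uninfected wells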
# RecA intein inh = inhibitors of M. tuberculosis RecA intein splicing; AID 2221; inhibition, %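 (about 9 µM by stock and volumes)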; cell-free RecA intein splicing, fluorescence; 290,000 compounds, 0.75% hits; P9WHJ3; in the data active = inhibition above about 30%; inconclusive = no clear call, values can overlap the other calls;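 also: 0% = vehicle wells and 100% = reference inhibitor control wells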
# Target sequence (P9WHJ3 whole entry, looked up): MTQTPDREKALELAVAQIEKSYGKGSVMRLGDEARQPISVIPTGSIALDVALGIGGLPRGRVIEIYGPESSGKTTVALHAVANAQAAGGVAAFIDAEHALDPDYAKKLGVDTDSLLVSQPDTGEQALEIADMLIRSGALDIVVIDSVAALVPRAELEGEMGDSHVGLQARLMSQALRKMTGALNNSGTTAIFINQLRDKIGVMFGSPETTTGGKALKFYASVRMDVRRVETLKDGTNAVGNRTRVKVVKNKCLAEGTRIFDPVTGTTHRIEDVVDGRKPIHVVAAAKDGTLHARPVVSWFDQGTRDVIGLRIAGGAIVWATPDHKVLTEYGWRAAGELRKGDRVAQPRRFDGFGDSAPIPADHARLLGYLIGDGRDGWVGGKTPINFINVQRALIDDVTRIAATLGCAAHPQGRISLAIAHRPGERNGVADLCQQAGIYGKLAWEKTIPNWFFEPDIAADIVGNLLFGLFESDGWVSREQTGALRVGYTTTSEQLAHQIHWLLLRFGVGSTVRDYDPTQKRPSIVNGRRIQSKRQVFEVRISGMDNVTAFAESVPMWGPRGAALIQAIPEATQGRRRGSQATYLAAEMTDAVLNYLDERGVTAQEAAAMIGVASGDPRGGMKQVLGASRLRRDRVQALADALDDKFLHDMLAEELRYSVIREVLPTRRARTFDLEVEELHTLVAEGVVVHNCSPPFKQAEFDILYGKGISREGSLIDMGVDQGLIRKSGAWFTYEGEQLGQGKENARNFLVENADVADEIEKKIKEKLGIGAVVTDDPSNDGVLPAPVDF
# Mtb betalactam = beta-lactam sensitization of Mtb H37Rv. M. tuberculosis H37Rv growth with meropenem, percent inhibition; hits of this screen are not shown here. inhibition, % at 25 µM. 330,000 compounds, 0.27% hits. AID 434955;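 active = about 74% or more and at least 40 points above the plate without the antibiotic, then above 30% in a dose series; inconclusive = first-round hits that could not be retested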;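 also: growth measured after seven days incubation then overnight dye step; 0% = bacteria only wells and 100% = bacteria with antibiotic; twin plates without the antibiotic show which effects depend on it; some results filed as inactive read as strong as hits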
# YopH inh = YopH (Yersinia) phosphatase inhibition; inhibition, %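 (about 10 µM by stock and volumes)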; AID 898; fluorescence Ex485/Em525; 140,000 compounds, 0.16% hits;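 active = inhibition of 50% or more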;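 also: controls were vehicle for no effect and minimum signal wells for full effect; inactives centre near -20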
# Arbovirus anti repeat = recorded beside Arbovirus anti, whose call it bears; inhibition, %; measured here: 10K subset replicate screen; many hits read low in the repeat;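 first of two repeat runs on a subset; 0% = infected and 100% = uninfected wells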
# Active calls of the source: *; ? = inconclusive; . = not tested or not shown. Only part of the results is shown; rates above refer to the full screens.
SMILES,Mtb growth,Arbovirus anti,RecA intein inh,Mtb betalactam,YopH inh,others
Cc1ccc(-c2nn(-c3ccccc3)cc2CSC(=N)N)cc1,50%,-32,19,99,5,
O=C(O)CN1CCN(Cc2ccccc2Cl)C1=O,-3%,.,0.1,2,-25,
CCOC(=O)N1CCN(C(=O)CN(C2CCCCC2)S(=O)(=O)c2ccc(F)cc2)CC1,-3%,11,0.9,2,3,Arbovirus anti repeat=3
COc1cccc(NC(=S)Nc2cccc3ccccc23)c1,.,.,2.1,22,.,
COC(=O)CN1C(=S)N(C)C(=O)C1CC(=O)Nc1ccccc1 (stereo not given),-5%,-1,-1.7,1,-22,
Cc1cccc(NC(=O)CSc2nnc(CNC(=O)c3ccco3)o2)c1C,.,.,-4.5,6,.,
CC(C(=O)NC1CCCc2ccccc21)N1CCN(c2ccc(F)cc2)CC1 (stereo not given),7%,9,6.3,-5,-4,
CC(=O)c1cccc(N(CC(=O)N2CCCC2)S(C)(=O)=O)c1,-1%,1,-1.4,0,-2,
COc1ccc(Cc2nnc(NS(=O)(=O)c3ccc([N+](=O)[O-])cc3)s2)cc1,.,.,5.5,4,.,
COc1ccc(NC(=O)CS(=O)c2ccccc2Cl)cc1 (stereo not given),.,.,1.7,-4,.,
CCS(=O)(=O)N1CCN(C(=O)c2cccc(OC)c2)CC1,-9%,-1,-2.5,1,-18,
CCCCCCCOc1ccc(OC(=O)c2cccnc2)cc1,6.3µM*,-28,1.1,97,7,
O=C(NN1CCOCC1)c1cccc(COc2cccc(Br)c2)c1,-4%,-2,0.5,-7,.,
COc1cccc(C(=O)N(Cc2ccc(N(C)C)cc2)C2CCS(=O)(=O)C2)c1 (stereo not given),0%,-5,-2.4,-3,-57,
CC(C)Oc1ccc(S(=O)(=O)N2CCOCC2)cc1NC(=O)CN1C(=O)NC2(CCCC2)C1=O,.,.,-1.3,-8,.,
Cc1ccc(NC(=O)O/N=C/c2cccc([N+](=O)[O-])c2)cc1,8%,1,3.0,-3,.,
Cc1nc(-c2ccccn2)sc1C(=O)O,1%,0,-1.1,1,.,
Cc1cc(C(=O)NCc2ccc(S(N)(=O)=O)cc2)ccc1[N+](=O)[O-],-6%,9,-0.7,4,-7,
CCOC(=O)N1CCN(C(=O)CSc2ccc(-c3cccc(OC)c3)nn2)CC1,.,2,-3.1,-16,.,
O=C(CN1C(=O)CSC1=O)Nc1ccc(C(=O)O)cc1,-16%,9,-2.2,-6,-24,
CCn1c(=O)n(CC)c2cc(N3CCCC3)c(NC(=O)c3ccccc3F)cc21,.,.,-5.9,11,.,
Cc1onc(-c2c(F)cccc2Cl)c1C(=O)Nc1nc2ccccc2[nH]1,44%,-17,13,74,-20,
Cc1[nH]n(-c2cccc(Cl)c2)c(=O)c1/C=N/n1c(C)nc2ccccc2c1=O,-6%,-32,3.1,8,-45,
CC(C)(O)C#Cc1ccc(CN2CCC(n3nccc3NC(=O)C3CC3)CC2)cc1,.,.,0.8,0,.,
COCCn1c(=O)[nH]c2cc(C(=O)NCCN3CCN(c4ccccc4F)CC3)ccc2c1=O,-6%,1,.,2,-6,Arbovirus anti repeat=0
CNC(C(=O)c1ccccc1)C(OC)c1ccc(C)cc1 (stereo not given),-10%,-4,-1.4,-7,-15,
O=C(Nc1ccc2[nH]ccc2c1)c1ccc(F)cc1,-2%,.,1.6,-2,.,
CC(C)(C)NCc1cc(Br)ccc1OC1CCCC1,-3%,17,-2.0,-4,.,
O=C(CNC(=O)N1CC(=O)Nc2ccccc21)NCCc1c[nH]c2ccccc12,.,.,1.2,-10,.,
Cc1ccc(OCC(=O)NNC(=O)C(C)Sc2ncnc3sc(C)c(C)c23)cc1 (stereo not given),-14%,-11,2.2,-1,-10,
COc1cccc(-c2csc(N3CCN(C(=S)Nc4ccccc4C)CC3)n2)c1,-5%,-9,1.0,-3,.,
N#CC1=C2SCN(Cc3ccco3)CN2C(=O)CC1c1ccccc1F (stereo not given),-4%,9,1.8,17,-19,
Cc1c(Cl)cccc1NC(=O)CN1CCC(NC(=O)C2CCCCC2)CC1,-6%,5,1.7,-1,-3,
CC(C)N(Cc1cn(C)nc1-c1cccc(Cl)c1)Cc1nccn1C,8%,2,-1.1,-1,.,
Cc1ccccc1C(=O)NC(NC(=S)Nc1ccc(S(N)(=O)=O)cc1)C(Cl)(Cl)Cl (stereo not given),0%,8,-6.7,-4,-4,
CCn1nnnc1-c1ccc(OC)c(S(=O)(=O)NCCc2ccccc2)c1,-7%,5,1.0,-6,-35,Arbovirus anti repeat=-1
CC(NC(=O)c1cc2c(s1)CS(=O)(=O)C2)c1ccccc1 (stereo not given),.,.,3.3,-5,.,
COC(=O)C(C)Oc1ccc(-c2nccc(-c3ccccn3)n2)cc1 (stereo not given),.,.,4.1,97,.,
COC(=O)c1cc(COC(=O)c2nc3nccc(C)n3n2)oc1C,-4%,2,0.3,0,.,
Cc1cccc(N(C(=O)c2csnn2)C(C(=O)NC(C)(C)C)c2cccs2)c1 (stereo not given),-1%,0,1.2,2,4,
C=CCn1c(SC)nnc1-c1ccc2ncccc2c1,.,.,-4.4,-8,.,
CCCc1ccc(S(=O)(=O)N/N=C(/C)c2ccc3c(c2)OCO3)cc1,.,.,3.8,4,.,
COCCn1nnnc1CN(CCc1ccccc1)Cc1cc2ccc(C)cc2[nH]c1=O,-1%,-5,-0.3,-5,5,
CN(CC(=O)Nc1ccc(Cl)cc1)CC(=O)Nc1ccc(C(N)=O)cc1,3%,0,-1.1,3,.,
CC(C(N)=O)N1C(=O)c2cccc3cccc1c23 (stereo not given),4%,-12,-17,-10,-1,
O=C(NCCN1CCOCC1)c1ccc(Cl)c(Cl)c1,.,.,1.0,-5,.,
Cc1ccc(S(=O)(=O)NC(=O)Nc2nc(-c3ccc(F)c(F)c3)cs2)cc1,6.2µM*,.,-1.3,96,.,
COCC(=O)Nc1ccc(Br)c(C)c1,>100µM*,-2,-0.6,74,.,
CN(C)c1cccc(NC(=O)CCc2ccccc2)c1,7%,-7,-1.2,47,-16,
CC(=O)c1cccc(-n2c(CCC(=O)O)ccc2-c2ccc(C)cc2)c1,.,.,1.5,-2,.,
COc1ccccc1NC(=O)CSc1nc2nccnc2c(=O)n1Cc1cccs1,.,.,4.5,?,.,
COc1ccccc1N1CCN(C(=O)CCCn2nc(C)c([N+](=O)[O-])c2C)CC1,1%,0,-5.6,-8,.,
Cc1cc(C)nc(SCc2nnc(SCC(=O)Nc3nccs3)n2Cc2ccco2)n1,3%,-6,1.0,-15,-48,
CC(=O)N1CCc2cc(S(=O)(=O)NCCN3CCC(C)CC3)ccc21,-7%,4,0.1,-2,-6,
CC(C)c1nc(SCC(=O)Nc2ccc(C(=O)O)cc2)c2c3c(sc2n1)CCCC3,.,.,1.5,-6,.,
CCCCC(=O)C1C(=O)NC(=O)NC1=O,-5%,4,2.1,2,-44,
Cc1ccccc1-c1ccc(C(=O)Nc2cccc(F)c2)o1,0%,4,13,18,-31,
Cc1ccc(N(CC(=O)NCc2ccccc2)C(=O)CCC(=O)Nc2ccccn2)cc1,.,.,-3.9,3,.,
Cc1cc(OCCN2CC(C)OC(C)C2)ccc1[N+](=O)[O-] (stereo not given),8%,-3,0.4,-7,-37,
O=C(CNC(=O)COc1ccccc1)NCc1ccccc1F,-16%,4,-5.4,-3,-37,

# Seven structures already listed, sorted by formula weight, lowest first.
SMILES,Mtb growth,Arbovirus anti,RecA intein inh,Mtb betalactam,YopH inh,others
CCCCC(=O)C1C(=O)NC(=O)NC1=O,-5%,4,2.1,2,-44,
COCC(=O)Nc1ccc(Br)c(C)c1,>100µM*,-2,-0.6,74,.,
CN(C)c1cccc(NC(=O)CCc2ccccc2)c1,7%,-7,-1.2,47,-16,
O=C(CNC(=O)COc1ccccc1)NCc1ccccc1F,-16%,4,-5.4,-3,-37,
Cc1ccc(S(=O)(=O)NC(=O)Nc2nc(-c3ccc(F)c(F)c3)cs2)cc1,6.2µM*,.,-1.3,96,.,
Cc1ccc(N(CC(=O)NCc2ccccc2)C(=O)CCC(=O)Nc2ccccn2)cc1,.,.,-3.9,3,.,
COc1ccccc1NC(=O)CSc1nc2nccnc2c(=O)n1Cc1cccs1,.,.,4.5,?,.,

# Later entries
SMILES,Mtb growth,Arbovirus anti,RecA intein inh,Mtb betalactam,YopH inh,others
Cn1c(CNC(=O)c2ccco2)nnc1SCC(=O)N1c2ccccc2Sc2ccccc21,-2%,-5,-5.6,-3,49,
Cc1ccc(N/C(CSC(N)=O)=N\S(=O)(=O)c2ccc(C)cc2)cc1,-15%,2,-3.1,4,-22,
COc1ccc(S(=O)(=O)N(C)CC(=O)N2CCN(C)CC2)cc1C,-5%,3,-0.5,-2,-23,
COc1ccc(OCC(O)CNC(=O)c2ccccc2C(=O)O)cc1 (stereo not given),-4%,3,-1.5,-12,-16,
CN(C)c1nc(N)nc(CSc2nnnn2-c2ccc(F)cc2)n1,-3%,5,-4.9,6,-1,
COC(=O)c1ccc(Sc2ccccc2NS(=O)(=O)c2ccc(OC)cc2)nc1,-12%,6,3.6,-4,-33,
CC1(C)CC(C(=O)Nc2ccccc2)C(=O)O1 (stereo not given),.,.,-0.4,-10,.,
COc1ccc(N2C(=O)NC(NS(=O)(=O)c3ccc(NC(C)=O)cc3)(C(F)(F)F)C2=O)cc1 (stereo not given),.,.,0.1,?,.,
CC(C)(C)P(=O)(CO)c1ccccc1 (stereo not given),-12%,4,0.6,4,-39,
Cc1occc1C(=O)Nc1cc(=O)n(C)c(=O)n1C,2%,8,-4.6,-6,-23,
CCOC(=O)CCSc1nnc(-c2cccnc2)n1-c1ccccc1OC,-3%,-1,3.8,-3,-32,
COc1ccc(N(C)C(=O)CC2(CC(=O)O)CCCCC2)cc1,5%,-7,-0.7,-2,-35,
CCOc1cc(C(=O)CCC(=O)OCC(=O)Nc2ccc(C)c(S(=O)(=O)N(C)C)c2)ccc1O,9%,7,1.9,-4,.,
CCN1C(=O)C(CC(=O)Nc2ccc(OC)cc2)N(CCN2CCOCC2)C1=S (stereo not given),-8%,.,1.5,-1,.,
N#Cc1cc2c(nc1SCC(=O)Nc1sc3c(c1C#N)CCC3)CCCCC2,-2%,-5,5.0,?,6,

# Among those listed so far, these contain a tert-butyl group:
SMILES,Mtb growth,Arbovirus anti,RecA intein inh,Mtb betalactam,YopH inh,others
CC(C)(C)NCc1cc(Br)ccc1OC1CCCC1,-3%,17,-2.0,-4,.,
Cc1cccc(N(C(=O)c2csnn2)C(C(=O)NC(C)(C)C)c2cccs2)c1 (stereo not given),-1%,0,1.2,2,4,
CC(C)(C)P(=O)(CO)c1ccccc1 (stereo not given),-12%,4,0.6,4,-39,

# Next compounds follow.
SMILES,Mtb growth,Arbovirus anti,RecA intein inh,Mtb betalactam,YopH inh,others
COc1cc2[nH]c(=S)nc(NCc3cccnc3)c2cc1OC,.,.,2.3,-3,.,
CC(C)CCC(=O)N1CCC(N2CCC(C(=O)NCc3ccccn3)CC2)CC1,.,.,-4.3,3,.,
COc1ccc(CNC(=O)Cn2cc([N+](=O)[O-])cn2)cc1,.,.,0.3,-9,.,
CC(=O)N/C(=C\c1ccc(Cl)cc1)C(=O)O,-6%,.,-0.6,-3,.,
Clc1nc2ccccc2cc1-c1nnn(-c2ccccc2)n1,4%,-2,3.6,33,.,
CCOc1cc(/C=N/NC(=O)c2ccc(CSc3nncn3C)cc2)ccc1OCC(=O)N1CCOCC1,0%,14,0.4,1,.,
C=CCn1c(C)cc(C(=O)COC(=O)c2ccc(N)c([N+](=O)[O-])c2)c1C,-3%,-4,1.0,7,-33,
c1ccc2c(c1)NC1(CCCCCC1)n1c-2nc2ccccc21,-3%,-2,-22,0,-10,
CC(C)(C)N(C=C(Cl)Cl)C(=O)NC1CCCCC1,-4%,5,0.1,5,-41,
CCOc1ccc(-c2c(C(=O)N/N=C(\C)c3ccccc3OC)nnn2-c2nonc2N)cc1,.,.,-2.1,-1,.,
Cc1cc(=O)n2nc(N3CCC(C(=O)NCc4ccccc4)CC3)sc2n1,.,.,-5.4,-4,.,
CCCNC(=O)c1ccc(N2CCC3(CC2)CC(c2cccc(Br)c2)=NO3)c(NC(=O)c2ccc(Br)cc2)c1,.,.,3.1,-4,.,
O=C(O)CCCN1C(=O)/C(=C/c2ccncc2)SC1=S,6%,.,-1.7,45,.,
CCOC(=O)CSc1ncnc2c1c(-c1ccccc1)cn2-c1ccc(OC)cc1,.,-8,0.1,99,-24,
Cc1c(C(=O)Nc2ccc(C(F)(F)F)cc2)sc2ncn(CC(=O)N3CCN(c4ccccn4)CC3)c(=O)c12,.,.,-1.1,5,.,
CSCCC(NC(=O)C1CCC(C)CC1)C(=O)O (stereo not given),-3%,5,-1.6,-22,-38,
